# Source: PubChem BioAssay (several laboratories)
# LANA-H2B inh: blockers of LANA interaction with H2A/H2B – biochemical, FP readout, HTS, primary screen; cell-free LANA-H2A/H2B peptide, fluorescence polarization; inhibition, % (concentration not given with the values); actives 0.6% (n = 320,000); in the data active = inhibition mostly above about 10%, no sharp cut-off; inactive = mostly below about 6.7%;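 also: stock transfer was 7.5 nL into about 10 µL; 0% = median of vehicle wells and 100% = median of positive control wells; one replicate is shown; the record names a cut of 25% in any replicate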
# UCH37 DUB inh: inhibitors of human UCH37 deubiquitinase, primary screen, biochemical, Ub-AMC cleavage, fluorescence; Ubiquitin carboxyl-terminal hydrolase isozyme L5 (Homo sapiens), Q9Y5K5; purified proteasome/UCH37; inhibition, % (no concentration beside the values); actives 0.33% (n = 330,000); AID 588478, 2011;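 active = mean of two replicates above 20%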;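 also: 0% = compound-free wells with enzyme and 100% = wells lacking proteasome; stock transfer was 100 nL into about 20 µL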
# Target sequence (Q9Y5K5 whole entry, looked up): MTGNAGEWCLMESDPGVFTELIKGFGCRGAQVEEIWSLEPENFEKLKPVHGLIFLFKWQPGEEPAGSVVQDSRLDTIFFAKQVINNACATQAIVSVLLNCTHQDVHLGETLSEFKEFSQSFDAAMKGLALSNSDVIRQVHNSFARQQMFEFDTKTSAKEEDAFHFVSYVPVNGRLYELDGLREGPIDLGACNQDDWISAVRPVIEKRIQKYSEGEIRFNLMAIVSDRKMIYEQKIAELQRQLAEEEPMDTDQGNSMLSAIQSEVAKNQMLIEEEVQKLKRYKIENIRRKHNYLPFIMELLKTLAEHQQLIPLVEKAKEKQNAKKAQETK
#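 Material: Human UCH37 enzyme supplied as purified proteasome complex | Schedule: 30 min preincubation with enzyme, 25 min cleavage at room temperature | Detection: AMC fluorescence 355/460 nm | Measure: % inhibition of Ub-AMC cleavage fluorescence | Controls: Wells without proteasome as full block, compound-free enzyme plus substrate as uninhibited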
# Calb FLC: C. albicans growth inhibition with fluconazole, primary screen, CaCi-2 strain, Alamar Blue fluorescence; C. albicans CaCi-2 (fluconazole-resistant clinical isolate) + fluconazole, 48 h; growth inhibition, % (test concentration not listed); actives 0.57% (n = 300,000);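 active = most replicates above 75%; inconclusive = exactly half above 75%; inactive = most below 75%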;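 also: all wells also contain fluconazole at 8 µg/ml as a sub-toxic cotreatment; 0% = median of DMSO wells and 100% = median of geldanamycin control wells; wells of about 8 µL received 7.5 nL stock; the first replicate is given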
# Beta2AR agonist: beta2AR agonists driving receptor internalization, primary screen, cell-based, FAP fluorogen, flow cytometry. Beta-2 adrenergic receptor (Homo sapiens), P07550. actives 0.43% (n = 340,000). Am2.2-beta2AR cells; reference of the scale not given here. response, % (no concentration beside the values);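 active = response above a set limit, near 3 SD of response in nonfluorescent compounds, cut at about 42% in these data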;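 also: stock transfer was 100 nL into about 11 µL; a reference agonist was the positive control; negative values mostly stem from fluorescent compounds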
# Target sequence (P07550 whole entry, looked up): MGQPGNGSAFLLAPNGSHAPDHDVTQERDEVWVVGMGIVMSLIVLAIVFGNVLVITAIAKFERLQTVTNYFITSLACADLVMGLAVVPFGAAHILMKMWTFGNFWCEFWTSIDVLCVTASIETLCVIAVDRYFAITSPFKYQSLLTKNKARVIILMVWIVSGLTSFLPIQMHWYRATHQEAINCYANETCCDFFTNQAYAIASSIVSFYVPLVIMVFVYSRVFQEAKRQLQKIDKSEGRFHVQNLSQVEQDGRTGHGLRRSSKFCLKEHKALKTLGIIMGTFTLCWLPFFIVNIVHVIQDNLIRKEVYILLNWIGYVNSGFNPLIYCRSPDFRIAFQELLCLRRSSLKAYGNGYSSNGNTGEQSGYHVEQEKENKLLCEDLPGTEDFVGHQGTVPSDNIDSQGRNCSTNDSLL
# RanGTP-Imp inh: inhibitors of RanGTP-importin-beta interaction, primary screen, biochemical, FRET, CFP-Ran, YFP-importin-beta, homogeneous; inhibition, % (concentration not given with the values); cell-free CFP-Ran/YFP-importin-beta FRET ratio; actives 1.1% (n = 300,000);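 active = most replicates above 15%; inconclusive = exactly half above 15%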;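 also: 0% = DMSO wells and 100% = Ran loaded with GDP instead of GTP; wells of about 40 µL received 100 nL stock; the first replicate is given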
# Beta apoptosis: inhibitors of cytokine-induced beta cell apoptosis, primary screen, luminescence; INS-1E cytokine-induced death, ATP luminescence, 48 h; percent of positive-control rescue, neutral wells zero; protection from apoptosis, % (test concentration not listed); actives 0.8% (n = 300,000); AID 435005, 2010;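 active = all replicates at 75% or more, or half of them and the mean; inconclusive = half reach 75% but not the mean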;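 also: 0% = cytokine-treated negative control wells and 100% = positive control rescue; higher means more ATP so stronger rescue from cytokine killing; wells of about 40 µL received 100 nL stock; the first replicate is given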
# Bfl-1 A1 inh: caspase 3/7 activation in MEF A1-2A-BIM cells, primary screen, A1 inhibitor project, cell-based, luminescence, HTS; Caspase-Glo 3/7 luminescence, 3 h; percent of clofoctol response, vehicle zero; caspase activation, % (concentration not given with the values); actives 0.066% (n = 330,000);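 active = over half of replicate activation scores above 10%, or exactly half above 10 with the replicate mean above 10; inconclusive = replicate mean below 10 yet half the replicates above 10; inactive = over half of replicates below 10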;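 also: wells of about 30 µL received 50 nL stock; many hits fall short of the cut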
# T cruzi inh: inhibitors of intracellular T. cruzi growth, primary screen, luminescence, NIH3T3 host cells; T. cruzi beta-gal in NIH3T3, 90 h; AID 1885, 2009; inhibition, % (test concentration not listed); actives 1.4% (n = 300,000);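 active = mean inhibition across valid replicates above about 55%, limit read from the data; inconclusive = mean below that limit but half or more replicates reach it; inactive = mean below it, under half of replicates reach it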;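 also: signal also drops with host cell toxicity which is not excluded here; 0% = plate median of DMSO wells and 100% = zero luminescence signal; higher percent means less beta-gal luminescence so fewer parasites; stock transfer was 50 nL into about 50 µL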
# Active calls of the source: *; u = inconclusive; x = no result given.
SMILES,LANA-H2B inh,UCH37 DUB inh,Calb FLC,Beta2AR agonist,RanGTP-Imp inh,Beta apoptosis,Bfl-1 A1 inh,T cruzi inh
CCCCCC(=O)Nc1cccc(C2=NOC3(C2)C[C@@H](C(N)=O)N(C(=O)c2ccc(OC)cc2)C3)c1 (stereo not given in full),0.3,4.4,8,5,0.1,-5,-1.1,31
O=C1C=CC(=O)N1,-0.9,0.5,x,-8,x,-2,-0.6,x
Cc1ccc2c(c1)c1c(n2CCc2ccc(C)nc2)CCN(C)C1,4.7,1.3,x,0,x,2,0.8,x
CN(C)S(=O)(=O)c1cccc(NC(=O)COC(=O)c2cccnc2Cl)c1,-7.4,-1.2,x,-3,x,-5,0.9,x
COc1ccc(-c2cc(C(=O)OCc3ccccn3)c3ccccc3n2)cc1,7.7,-185,6,-2,2.6,x,-1.3,-4
COc1ccc(OC)c(-c2nc3c(C)n[nH]c(=O)c3[nH]2)c1,-3.7,-12,-1,-2,7.3,3,0.0,-9
COc1ccc(S(=O)(=O)N/N=C(/C)c2ccncc2)cc1,-1.8,x,4,-2,4.1,-4,0.5,1
COc1cc(/C=c2\sc3nc(=O)c(-c4ccccc4)nn3c2=O)ccc1OCCC(C)C,-332,x,x,1,x,-5,0.7,x
CCOc1cccc2cc(C(=O)Nc3nccs3)c(=O)oc12,0.5,5.2,-6,-3,3.2,0,-1.2,4
C#CCSc1nnc(-c2ccc(C)cc2)o1,0.0,0.2,1,-3,-3.0,-6,0.2,-29
COc1cc(C(=O)c2ccccc2)c([N+](=O)[O-])cc1OC,-1.6,6.3,5,9,2.0,-8,0.4,4
Cc1c(C2C(C#N)=C(N)N(c3ccccc3C#N)C3=C2C(=O)CCC3)cnn1C (stereo not given),2.1,7.1,2,2,-2.8,-4,0.0,2
COC(=O)c1c(NC(=O)CC2SCC(C(=O)OC)NC2=O)sc2c1CCCC2 (stereo not given),0.9,4.7,-10,19,-11,-1,2.2,-6
Cc1cccc(C)c1NC(=O)CN(C)C(=O)c1ccc(-n2cncn2)c([N+](=O)[O-])c1,2.8,3.3,-3,3,4.6,2,1.1,-4
CCOc1cccc(-c2nnc3sc(C4CCCCC4)nn23)c1,-1.5,2.7,-5,-14,7.1,7,0.0,u

# As entered above:
# COC(=O)c1c(NC(=O)CC2SCC(C(=O)OC)NC2=O)sc2c1CCCC2 (stereo not given) in Beta apoptosis = -1
# CN(C)S(=O)(=O)c1cccc(NC(=O)COC(=O)c2cccnc2Cl)c1 in Bfl-1 A1 inh = 0.9
# Cc1ccc2c(c1)c1c(n2CCc2ccc(C)nc2)CCN(C)C1 in Beta2AR agonist = 0

# Additional compounds follow:
SMILES,LANA-H2B inh,UCH37 DUB inh,Calb FLC,Beta2AR agonist,RanGTP-Imp inh,Beta apoptosis,Bfl-1 A1 inh,T cruzi inh
Cc1ccc(C)n1NC(=O)c1ccccc1[N+](=O)[O-],11,2.1,-3,-4,0.8,-12,0.1,-10
Cn1c(N)c(C(=O)COC(=O)C2CCCCC2)c(=O)n(C)c1=O,0.6,2.1,-17,-3,1.1,0,0.4,19
COc1ccc(NC(=O)CCNS(=O)(=O)c2ccc(Br)s2)cc1,0.7,3.3,-4,-4,2.1,2,0.1,2
N#CCCN(C(=O)COC(=O)C1CCN(S(=O)(=O)c2cccs2)CC1)c1ccccc1,1.9,3.7,-8,1,u,-7,1.2,-9
Cc1cc(NC(=O)CSc2nnc(-c3ccccc3)n2Cc2ccco2)no1,-0.4,3.0,-1,-11,0.1,-6,-0.4,1
CC(C)(O)C(=O)NNC(=S)Nc1cccc(C(F)(F)F)c1,2.7,5.9,-3,-9,-0.9,6,0.6,-2
CCn1ncc(CNC(=O)C2(C)CC2(Br)Br)c1C (stereo not given),-0.8,3.0,7,5,-9.5,-4,-0.3,7
COCCSc1nnc(NC(=O)CSCc2ccccc2)s1,-2.9,5.4,29,-2,-0.8,x,-0.8,-2
Cc1cc(C(=O)NCC(=O)OCC(=O)NCCc2ccccc2)ccc1[N+](=O)[O-],-6.5,0.2,0,5,-1.6,0,-0.3,-10
O=C(O)CN=C1NC2(CCCCC2)Cc2ccccc21,0.6,4.8,11,-8,4.2,0,0.6,-8
CN(C)c1nc(=Nc2cccc(Cl)c2)ss1,1.7,x,-6,10,1.6,8,0.0,29
CCOC(=O)N1CCN(C(=O)CNC(=O)Cn2cnc3ccccc3c2=O)CC1,-1.6,0.0,-6,0,-2.2,-9,0.5,3
Cc1ccc(-n2nnc3c(=O)oc4ccccc4c32)cc1,1.9,-0.1,-22,13,2.4,7,0.6,-25
COc1cc(C(=O)Nc2nc3ccc(S(=O)(=O)N4CCOCC4)cc3s2)cc(OC)c1OC,-0.4,-4.6,37,18,-2.0,x,0.6,-7
O=C(c1ccco1)N1CCN(C(=O)c2cc(-c3ccccn3)nc3ccc(Cl)cc23)CC1,7.3,4.0,6,2,1.4,-5,3.1,x
CC(C)OP(=O)(OC(C)C)C(Nc1ccc([N+](=O)[O-])cc1)c1cccc([N+](=O)[O-])c1 (stereo not given),3.8,9.2,u,2,-3.6,3,0.4,19
CCCCCC(=O)N/N=C(\C)c1ccc(N2CCCCC2)cc1,-0.1,x,-27,3,0.1,-1,-1.3,3
CC(C)CCn1c(SCC(=O)OCn2nnc3ccccc3c2=O)nc2ccccc2c1=O,0.2,5.8,15,-7,-1.7,x,0.3,8
COc1cccc(-c2nnc(NC(=O)Cc3cccs3)s2)c1,1.8,-3.4,6,0,-1.5,-9,0.0,-11
O=C(COc1ncnc2ccccc12)Nc1ccc(Cl)c(S(=O)(=O)N2CCOCC2)c1,-0.1,0.2,12,-6,5.2,-6,-0.6,0
COc1ccccc1NC(=S)N=Nc1c(O)[nH]c2ccc(Br)cc12,-0.3,5.3,34,0,-7.5,u,0.6,39
Cc1nnc(-c2ccccc2)nc1N(C)C,2.9,1.9,2,-2,u,-4,-0.1,3
CCOc1ccc(N2C(=O)Nc3ccc(Br)cc3C2(O)C(=O)NC(C)C)cc1 (stereo not given),0.8,5.5,12,-2,-5.5,0,-0.8,-10
CC1=NN(c2nc(-c3ccccc3)cs2)C(=O)C1N=Nc1ccccc1 (stereo not given),0.8,2.9,-2,14,-1.8,1,-0.4,7
O=C(CCCn1nnc2ccccc2c1=O)N[C@@H](Cc1ccccc1)C(=O)O,3.4,-1.3,-6,2,6.8,0,0.3,-16
CCc1n[nH]c(=S)n1/N=C/c1cccc2ccccc12,-3.7,x,14,2,-0.1,0,-1.2,-1
CCC(Sc1nncn1C)C(=O)Nc1ccccc1OC (stereo not given),-2.1,3.6,-10,10,0.9,5,-0.1,-6
O=C(Nc1cccc(NC(=O)c2ccco2)c1)c1ccc2c(c1)OCO2,3.5,3.4,-20,2,0.7,2,-2.5,3
O=C(O)CCSc1ccccn1,-3.0,4.3,0,5,-2.2,x,0.9,-12
O=C(Nc1ccc(F)cc1F)c1ccc(S(=O)(=O)NCc2ccco2)cc1,-3.1,2.7,x,7,x,-2,0.6,x
O=C(O)CCC(=O)c1ccc2c(c1)OCCCO2,-6.1,1.4,-14,-1,1.1,x,0.0,-13
O=C(NCc1ccco1)c1ccc(Cn2c(=O)c3sccc3n(Cc3ccc(F)cc3)c2=O)cc1,-0.7,9.0,4,12,u,6,0.4,-87
COc1ccc(CNC(=O)CCN2C(=O)c3ccccc3C2=O)cc1OC,1.1,4.1,2,0,7.1,1,0.3,-9
Cc1ccc(C(=O)OCC(=O)Nc2ccc3[nH]c(=O)[nH]c3c2)cc1[N+](=O)[O-],3.0,0.3,15,-4,u,-10,-0.4,-3
NC(=S)Nc1ccccc1Br,2.5,3.5,-14,-1,2.9,-6,1.6,-4
O=C(Nc1ccccc1Cl)c1cc(S(=O)(=O)N2CCOCC2)cs1,-2.0,3.7,u,-4,2.5,-2,0.4,-11
Cc1cccc(Oc2ccc(N)cc2)c1,2.4,1.4,-54,5,-0.5,-2,-0.1,-7
Cn1c(NCC2CCCO2)nc2c1c(=O)n(Cc1ccccc1)c(=O)n2C (stereo not given),2.9,3.3,-8,-6,5.0,x,-0.7,-2
O=C(CN1CCN(c2cccc(Cl)c2)CC1)Nc1ccc(S(=O)(=O)N2CCOCC2)cc1,145*,3.5,0,-3,-2.2,0,0.6,-10
Cc1c(NC(=O)c2cc(-c3cccs3)nc3ccccc23)c(=O)n(-c2ccccc2)n1C,-2.6,-13,-3,10,0.0,5,0.1,-46
COCCN(C(=O)CSc1nnc(-c2ccccc2OC)o1)c1c(N)n(CC(C)C)c(=O)[nH]c1=O,-14,5.6,-4,2,x,0,0.5,-15
COc1ccc(CC2(CO)CCN(S(=O)(=O)c3c(C)nn(C)c3Cl)CC2)cc1,-2.4,4.2,-3,4,4.5,-4,-0.7,-8
Cc1ccc(CNC(=O)c2ccc(N3CCC4(CC3)CC(c3cccc(Br)c3)=NO4)c(NC(=O)c3ccc(Br)cc3)c2)cc1,4.9,-262,x,7,x,-8,-0.4,x
CCC1CCCCN1C(=O)Cn1c(C(=O)OC)cc2sc(Cl)cc21 (stereo not given),-6.7,4.9,-8,-7,3.8,1,0.5,3
CCn1c(COc2ccc(C)cc2)nnc1SCc1ccc(C#N)cc1,-0.2,1.3,0,-13,11,-4,-0.8,-8
Cc1c(C)n(C)c2ccc(C(=O)NCCCN3CCCC3)cc12,-1.9,-2.4,5,-1,0.2,-4,0.4,6
Cc1ccc(C(=O)CSc2nnc(-c3c[nH]c4ccccc34)o2)cc1,-3.5,3.0,-10,2,u,-4,-0.3,3
O=C(Oc1ccccc1C(=O)Nc1ccccc1)c1ccc(Br)c([N+](=O)[O-])c1,4.2,2.5,-6,2,4.1,6,-0.3,-21
Cn1c(C(=O)N2CCCC(C(=O)O)C2)cc2sccc21 (stereo not given),-6.7,5.9,-3,-2,1.2,-6,0.3,-9
CCOC(=O)C1Nc2c(F)cc(C)cc2C2c3ccccc3CC12 (stereo not given),14,-3.6,13,0,4.7,4,-0.6,-1
Cn1cc(Br)c(C(=O)NC2CCCCCC2)n1,8.0,4.5,-3,-4,-2.6,-4,0.4,-4
CC1CCN(CC(O)COC2CC(C)CC(C)(C)C2)CC1 (stereo not given),1.7,3.0,-9,1,-9.3,6,0.9,6
CCc1nc2sc(C#N)c(N)c2c2c1CCCC2,3.0,-121,1,17,3.9,2,-0.1,19
Cc1oc(-c2ccccc2Cl)nc1CN1CCCCC1CO (stereo not given),0.9,4.5,-27,3,3.1,-2,-0.2,2
Cc1c(NC(=O)CSc2nnc(C(C)Oc3ccc(Cl)cc3)n2-c2ccccc2)c(=O)n(-c2ccccc2)n1C (stereo not given),1.5,0.8,5,-15,1.9,-15,0.7,-5

# Compounds were not picked by outcome; any-hit rate near 4.3%.
